TRPV1 potentiator – human TRPV1 potentiation; potentiation, % at 8.33 µM; Q8NER1; TRPV1-expressing cells, Fluo-8 calcium influx, capsaicin EC20 potentiation; host cell line not named in the record; control for the full effect not named in the record; 320,000 compounds, 0.02% hits; active means potentiation above 80%; inconclusive means 30% to 80%; inactive means below 30%; note: 0% is about no effect
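TRPV1-expressing cells were cultured overnight at 35.5C and loaded with Fluo-8 calcium dye for 40 to 90 min at room temperature. After a 10 s baseline, compound was added and calcium influx was read kinetically for 3 min (ex 480/em 520 nm).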
D2 PAM – positive allosteric modulators of human D2 dopamine receptor; potentiation, % (no concentration beside the values); 360,000 compounds, 0.23% hits; P14416; AID 624464; DiscoveRx D2 beta-arrestin cells, luminescence, 90 min; 100% = 57 uM dopamine signal; active = potentiation of 50% or more; inconclusive = 30% to 50%; inactive = 30% or less;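 note: compound concentration not given in the record; tested on top of an EC20 dose of dopamine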
Target sequence (P14416 whole entry, looked up): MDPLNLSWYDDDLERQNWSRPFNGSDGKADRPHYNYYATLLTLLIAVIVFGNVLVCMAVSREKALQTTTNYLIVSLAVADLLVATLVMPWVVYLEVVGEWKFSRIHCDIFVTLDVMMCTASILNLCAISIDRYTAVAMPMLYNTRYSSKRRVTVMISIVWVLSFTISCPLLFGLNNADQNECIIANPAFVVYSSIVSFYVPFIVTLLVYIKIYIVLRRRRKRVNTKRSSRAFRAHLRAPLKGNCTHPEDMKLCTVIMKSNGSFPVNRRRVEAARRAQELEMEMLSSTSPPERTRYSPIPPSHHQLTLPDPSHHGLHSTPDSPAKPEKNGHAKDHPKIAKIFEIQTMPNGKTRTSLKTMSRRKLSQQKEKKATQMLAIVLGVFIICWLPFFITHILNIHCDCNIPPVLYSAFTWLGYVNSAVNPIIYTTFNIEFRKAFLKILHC
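D2 cells co-treated with compound plus 50 nM dopamine (EC20) for 90 min at 37 deg C to detect potentiation. Beta-arrestin recruitment was read as enzyme-fragment luminescence after 1 h at ambient temperature. Full response was set by 57 uM dopamine.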
Six1-Eya2 inh – inhibitors of human Six1/Eya2 interaction; Q15475+O00167; AlphaScreen GST-Six1/His-Eya2 binding, biochemical; stronger effect = lower value; control for the full effect not named in the record; 360,000 compounds, 0.56% hits; activity change, % (no concentration beside the values); AID 651725; in the data active = activity change below about -65%; inconclusive = about -30% to -65%; inactive = above about -30%; note: % is set by controls: 0 for no effect and ±100 for the full control effect
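GST-Six1 + His-Eya2 (5X stock: 250/500 nM); Tris pH 8.0, 300 mM NaCl, 0.05% BSA, 0.02% Tween 20; GSH donor/Ni acceptor beads; 1 h 37 °C dark; AlphaScreen readout.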
PINK1 modulator – modulators of PINK1 expression | PINK1 immunofluorescence, high-content cytometry, 24 h | Potency, µM (doses to about 76.6 µM), for the others: at the highest dose activation (PINK1 increase), actives largely listed as activators | 410,000 compounds, 0.2% hits; active = well fitted activation curve with a large enough effect; inconclusive = small, poorly fitted or top-dose-only effect; inactive = flat fitted curve, though single readings scatter; cell line not stated here;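 note: potency is the fitted concentration of half-maximal effect; % of control where 0% means no effect; nearly all actives have a fitted effect of over 65% in size; a mitochondrial uncoupler was the plate control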
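Cells are seeded, rested 12 hours, then given compound at five concentrations or DMSO for 24 hours. After fixation, blocking and antibody staining, PINK1 amount and mitochondrial localization are scored; CCCP serves as control.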
CtBP-E1A inh – CtBP/E1A binding inhibition; AID 651724; activity change, % (no concentration beside the values); AlphaScreen GST-E1A/His-CtBP binding, 1536-well; stronger effect = lower value; control for the full effect not named in the record; 340,000 compounds, 0.49% hits; in the data active means activity change below about -65%; inconclusive means about -30% to -65%; inactive means above about -30%; note: % is set by controls: 0 for no effect and ±100 for the full control effect
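Protein mix (5X: 125 nM each GST-E1A, His-CtBP) was incubated with pinned compound 2 h at 37 deg C in dark, in 50 mM Tris pH 8.0 buffer with 300 mM NaCl. Glutathione donor and nickel acceptor beads followed; AlphaScreen signal read after 1 h.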
D2 agonist – agonists of human D2 dopamine receptor (beta-arrestin). P14416. DiscoveRx PathHunter D2 beta-arrestin, luminescence, 90 min; 100% = 57 uM dopamine signal. activation, % (no concentration beside the values). 360,000 compounds, 0.084% hits. AID 624465; in the data active = activation above about 40%; inconclusive = about 15% to 40%; inactive = below about 15%; note: compound concentration not given in the record; the text of the record calls up to 30% inactive
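DiscoveRx PathHunter D2 beta-arrestin cells (2,100/well) attached overnight, then compound-stimulated 90 min at 37 C in HBSS/10 mM HEPES/0.1% Tween-20 buffer; beta-galactosidase complementation read by luminescence after 1 h at ambient temperature. Dopamine 57 uM final (EC100) as control.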
Sfp inh – inhibitors of Bacillus subtilis Sfp phosphopantetheinyl transferase; Biochemical Sfp PPTase activity, qHTS; Potency, µM, for the others: max response, negative = inhibition, hits mostly inhibitors; 310,000 compounds, 3.5% hits; active = well fitted inhibition curve with a large enough effect; inconclusive = small, poorly fitted or top-dose-only effect, or another doubt; inactive = no such curve, though single readings can be large or run the other way;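 note: the enzyme is Sfp with the accession as filed and its product quenches rhodamine fluorescence; potency is the fitted concentration of half-maximal effect; 0% = enzyme reaction without inhibitor and -100% = no enzyme wells; top concentration of the series not given in the record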
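Compounds were incubated with enzyme (final 15 nM) for 15 min at room temperature before substrate addition started the reaction. Fluorescence at 525 nm excitation, 598 nm emission was recorded immediately and after 30 minutes.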
* = called active by the depositor; ? = inconclusive; · = no result given; [ ] = another dose, or the depositor's remark.

Structure	CtBP-E1A inh	D2 PAM	PINK1 modulator	D2 agonist	TRPV1 potentiator	Six1-Eya2 inh	Sfp inh
CCC(=O)Nc1ccc2c(c1)nc1n2CCSC1	-5.3	1.6	0.1%[38.3 µM]	4.5	2.2	-0.5	-2.3%
COc1ccccc1NC(=O)CSc1nnc(-c2ccncc2)n1CC1CCCO1 (stereo not drawn)	4.0	-4.7	1.5%	-4.2	?	3.8	9.6%
O=C(/C=C\c1cccs1)N1CCN(Cc2ccc3c(c2)OCO3)CC1	-0.1	-11.0	-0.6%	-0.7	-21.3	-1.5	11.2%
COc1ccc(NC(=O)Nc2ccc([N+](=O)[O-])cc2)cn1	-7.9	-5.1	-0.5%	-0.5	-0.5	-11.8	-7.3%
NC(=S)N1CCCc2ccccc21	-1.1	-0.2	-0.5%	-2.8	-8.5	-1.3	-7.1%
COC(=O)[C@H]1C[C@H](OC(=O)NCC2CCCCC2)[C@@]2(O)CN(S(=O)(=O)c3ccc(C)cc3)CC2[C@H]1C(=O)OC (stereo partly drawn)	-0.8	-1.8	1.5%	-9.9	·	3.6	·
COc1ccc(C2=NN(c3nc4ccccc4s3)C(=O)/C2=C\N(C)C)cc1	-3.5	-5.1	2.5%	-1.6	20.4	5.0	-5.9%
CCN(CC)S(=O)(=O)c1cc(C(=O)OCC(=O)NC(=O)c2cccn2C)ccc1C	-6.2	-3.0	0.7%	5.5	-8.4	1.8	7.0%
CN(/C=C/c1c([N+](=O)[O-])c(=O)n(C)c(=O)n1C)c1ccccc1	-1.9	-2.0	-1.0%	-2.2	6.9	5.3	16.5%
COc1ccc(C(=O)NCCCNC(=O)c2cnccn2)cc1	-7.5	-0.8	3.1%	2.7	11.1	1.8	18.5%
O=C(CSc1c[nH]c2ccccc12)NC1CCCC1	5.2	-10.9	0.1%	-2.9	-23.0	-3.9	13.0%
O=C(Nc1cccnc1)c1ccc(S(=O)(=O)N2CCCCCC2)cc1	-2.0	3.4	-1.5%	0.2	1.3	2.1	8.4%
CC(C)c1ccc(/C=C(\NC(=O)c2ccccc2)C(=O)NCCCn2ccnc2)cc1	·	-13.3	-0.8%	4.6	-2.9	-4.4	4.1%
CCc1nc(Nc2ccccc2)c2nnn(Cc3ccccc3)c2n1	6.5	-2.6	2.7%	-5.3	-6.9	2.2	35.5µM*
Cc1ccc(C(=O)NC2CCN(C(=O)NC3CCCCC3)CC2)cc1	10.8	-16.3	0.5%	-3.6	-19.1	1.8	1.2%
Clc1ccc(-c2ncc3ccccn23)cc1	-0.2	-6.2	2.1%	-1.3	-6.5	2.3	4.8%
COc1ccc(-c2ccc(CN3C(CC(C)C)C(=O)N(Cc4cn(CC5CCCCC5)nn4)CCS3(=O)=O)cc2)cn1 (stereo not drawn)	-3.8	-0.4	-0.6%	-10.7	·	-9.2	·
CN(Cc1cnc2nc(N)nc(N)c2n1)c1ccc(C(=O)NC(CCC(=O)O)C(=O)O)cc1 (stereo not drawn)	-1.1	5.3	-0.4%	-0.5	·	?	16.0%
O=C(Cc1ccc([N+](=O)[O-])cc1)N1N=C(C2CC2)CC1(O)C(F)(F)F (stereo not drawn)	-12.7	-3.6	0.2%	0.7	-6.5	-1.0	12.7%
Cc1cc(C)c(C)c(S(=O)(=O)N2CCC(C(=O)NCCCN3CCCC3=O)CC2)c1C	-2.3	-3.4	-0.5%	-5.8	7.0	5.2	·

Later entries:
Structure	CtBP-E1A inh	D2 PAM	PINK1 modulator	D2 agonist	TRPV1 potentiator	Six1-Eya2 inh	Sfp inh
COc1ccc(OC)c(C(=O)CCCCC(=O)c2cc(OC)ccc2OC)c1	3.3	-7.8	3.2%	-9.2	·	-1.8	·
Cc1ccc(S(=O)(=O)N2CCCC2)cc1C(=O)NCC(C)(C)N1CCOCC1	13.7	-15.2	0.9%	-6.2	-27.4	2.8	·
COC(=O)CC1COc2ccccc2N1S(=O)(=O)c1ccc(Br)cc1 (stereo not drawn)	·	-4.2	3.3%	2.8	0.7	6.0	-3.5%
CCCCc1cc(=O)oc2cc(C)cc(OCC(=O)N3CCC(C(N)=O)CC3)c12	-15.6	-12.3	1.1%	-3.8	8.6	6.3	14.9%
COc1ccccc1CNC(=O)C(=O)NCC1OCCN1S(=O)(=O)c1ccc(Br)cc1 (stereo not drawn)	-0.9	1.5	-0.2%	-0.8	-0.1	8.1	-2.4%
COc1cc(Br)cc(/C=N/N(CCO)C2=NS(=O)(=O)c3ccccc32)c1OC	?	-23.4	-0.2%	-3.3	16.9	-29.5	-8.4%
COc1ccccc1-c1nnc(SCC(=O)Nc2ccc(S(N)(=O)=O)cc2)n1N	·	-11.7	0.5%	-3.5	-2.3	4.1	9.1%
Cc1ccc(NC(=O)CCn2c(=O)oc3ccccc32)c(C)c1	3.1	4.4	-2.0%	-2.5	-0.4	-1.3	-3.1%
CC(=O)Nc1ccc(Nc2cc(C)nc(Nc3ccc(NC(C)=O)cc3)n2)cc1	?	-2.2	0.6%	-2.2	13.9	-7.1	·
COc1ccc(CNC(=O)CNS(=O)(=O)c2cccs2)cc1	-10.5	3.3	1.6%	0.1	1.3	-13.5	4.4%
NS(=O)(=O)c1cccc(NC(=O)COc2ccc([N+](=O)[O-])cc2)c1	-5.9	-11.5	-0.6%	1.2	0.4	1.5	-4.0%
CCOc1ccc(S(=O)(=O)c2c(C(=O)c3ccccc3)cnc3cc4c(cc23)OCCO4)cc1	10.3	-9.1	2.7%	-4.3	-5.1	6.1	3.4%
Oc1ccc(/C=N/NC(=S)NC2CC3CCC2C3)cc1 (stereo not drawn)	-6.3	-3.8	2.4%	-0.2	0.9	-29.4	-0.4%
Cc1ccc(C(=O)Nc2ccc(N3CCCC3)cc2)c(C)c1	-9.3	-7.6	4.1%	-2.9	-4.5	-15.6	3.0%
O=C(COC(=O)Cc1ccccc1[N+](=O)[O-])Nc1nnc(-c2ccccc2)o1	?	-2.1	-2.5%	-3.1	?	-11.2	·
O=C(Nc1nnc(C2=COCCO2)o1)c1ccc(S(=O)(=O)N2CCOCC2)cc1	?	-6.2	0.5%	-5.2	14.5	-16.8	-9.3%
O=C(Nc1ccc(F)cc1)C(c1ccccc1)N1CCN(C(=O)c2ccco2)CC1 (stereo not drawn)	-5.4	-12.8	1.3%	-0.4	14.7	0.0	0.7%
CCCCn1nc(C(=O)N2CCc3ccccc32)c2ccccc2c1=O	0.6	-11.8	-1.7%	-4.5	-5.9	-4.3	-0.5%
N#Cc1c(N)nc(N2CCCC2)c(C#N)c1-c1ccc(Cl)cc1	9.0	-4.7	16.1%	-2.1	-17.2	5.9	-8.3%
Cc1ccc(NC(=O)COC(=O)/C=C/c2cccc(Cl)c2)cc1S(=O)(=O)N1CCOCC1	?	-2.6	-0.3%	2.0	25.4	-10.5	17.0%

Next compounds follow.
Structure	CtBP-E1A inh	D2 PAM	PINK1 modulator	D2 agonist	TRPV1 potentiator	Six1-Eya2 inh	Sfp inh
CCOC(=O)c1cn2nc(Oc3ccc(NC(C)=O)cc3)ccc2n1	19.2	0.9	1.2%	-0.4	18.5	-1.9	9.2%
Cc1cc(-c2c(C)[nH]n(-c3ccc(Cl)cc3)c2=O)n(-c2ccc(Cl)cc2)n1	2.3	6.4	0.4%	-2.9	-3.5	3.4	18.4%
O=S(=O)(CCc1nnc(-c2ccc(Br)cc2)o1)c1ccc(Cl)cc1	1.3	-6.6	-1.1%	-1.1	2.6	-3.1	-4.8%
Oc1ccc(N2CCN(Cc3nc4ccccc4[nH]3)CC2)cc1	-6.6	10.5	-0.1%	8.7	11.1	-8.4	56.2µM*
Clc1ccccc1Cc1noc(CN2CCN(Cc3ccccn3)CC2)n1	-1.0	0.7	0.6%	-1.4	5.5	-0.9	-5.7%
COCCCNc1nnc(Cc2ccccc2)c2ccccc12	3.9	-7.3	1.4%	-3.7	-23.0	6.0	17.9%
COc1ccc(C(=O)NC(=S)Nc2ccc(Cl)c(C(=O)O)c2)cc1	-1.5	-10.0	0.5%	-0.9	-9.5	7.4	-14.9%
COc1ccc(C(=O)N2CCN(c3ccccn3)CC2)cc1[N+](=O)[O-]	-0.5	-0.6	-0.7%	-2.9	1.8	-4.2	9.1%
CCOc1ccccc1C(=O)NCc1ccco1	7.0	-12.1	-2.8%	-1.6	3.5	-1.0	-9.0%
CCOc1cc2[nH]c(=O)n(Cc3ccc(C(=O)NCCCN4CCCC4=O)cc3)c(=O)c2cc1OCC	2.9	-34.1	1.2%	-1.2	9.8	0.9	9.7%
N#C/C(=C\c1ccccn1)c1ccccn1	-5.8	-5.3	-0.1%	-1.1	-21.2	1.5	-0.9%
CCN(CC)S(=O)(=O)c1ccc2c(c1)N(CC(=O)NCCN1CCOCC1)C(=O)CO2	·	-6.9	4.3%	-0.3	-4.3	5.5	15.9%
CC1(OC(=O)c2cccs2)C(=O)C=C2C=C(C3CC3)OC=C2C1=O (stereo not drawn)	0.4	4.7	0.0%	1.4	·	-3.1	?
COC(=O)c1c(NC(=O)c2ccccc2)sc(Cc2ccccc2)c1C	12.5	-18.8	2.2%	-3.1	21.2	20.5	-2.2%
O=C(Nc1ccc2c(c1)OCCO2)c1cc(F)c(F)cc1Cl	9.6	-2.0	1.8%	-2.2	-6.9	2.4	7.8%
O=C(N/N=C/c1cccc(OCc2ccccc2)c1)c1cccs1	-1.3	-2.6	·	-0.2	2.6	11.2	-19.5%
CC1(C)Cc2nc3sc4c(SCC(=O)O)ncnc4c3cc2CO1	-2.1	-11.0	0.6%	-5.2	13.0	-4.0	26.5%
CCOC(=O)Cc1csc(SCC(=O)NC2CCCCC2)n1	·	-8.5	-1.2%	1.8	9.9	9.0	7.3%
Cc1c(C(=O)NNC(=O)Nc2ccc([N+](=O)[O-])cc2)oc2ccccc12	-23.9	-18.4	3.6%	-0.2	0.4	-1.0	?
COc1ccc(N(CC(=O)Nc2ccc(C)c(C)c2)C2=NC3CS(=O)(=O)CC3S2)cc1 (stereo not drawn)	-2.0	-4.4	2.1%	-1.2	21.9	2.3	-0.4%
CCOC(=O)C1CCN(C(=O)c2cc(S(=O)(=O)N3CCCCC3)ccc2C)CC1	6.5	-7.8	1.0%	-5.9	-5.7	0.5	7.1%

Assay outcomes as filed in PubChem.

Rows are unselected; about 3.7% have a hit in one of these screens.
